Compound activity deposited in PubChem BioAssay by National Center for Advancing Translational Sciences (NCATS).
Menin-MLL FL inh – displaces fluorescein MLL peptide from human menin; FP activity change, % at 61.4 µM; 290,000 tested, under 10 active; Fluorescence polarization, fluorescein-MLL peptide displacement from menin; inconclusive = falling polarisation curve, or a change in total fluorescence; inactive = total fluorescence flat and polarisation flat or rising; no compound was filed as active; the % refers to the polarisation; negative = inhibition;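 also: % of control where 0% means no effect; inhibitors lower the polarisation; unlabelled MLL peptide was the positive control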
gsp agonist – agonists of gsp mutant (McCune-Albright syndrome); 340,000 tested, 0.13% active; Potency, µM (highest dose often 76.9 µM), for the others: at the top dose activation (cAMP increase), hits mostly activators; gsp mutant cells, cAMP HTRF, 30 min; control for the full effect not named in the record; active = well fitted activation curve with a large enough effect; inconclusive = small, poorly fitted or top-dose-only effect, or another doubt; inactive = no such curve, though single readings can be large or run the other way; cell line not stated here;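 also: phosphodiesterase inhibitor Ro 20-1724 added with compounds to block cAMP breakdown; potency is read from the fitted curve at half-maximal effect; nearly all actives have a fitted effect of over 60% in size; about a fifth of the inactives were tested at one dose only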
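Cells in DMEM/10% FBS with G418 were pretreated with compounds in DMSO plus […] (300 uM stock) for 30 min at 37C. cAMP was measured by HTRF (cAMP-d2 plus anti-cAMP antibody-K) after 30 min at room temperature.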
TRPML1 inh – human mucolipin-1 channel inhibition | Q9GZU1 | TRPML1-inducible cells, Ca2+ dye fluorescence, FDSS; active compounds read low; inhibition of EC80 agonist-evoked calcium signal | activity change, negative = inhibition, % (test concentration not listed) | 390,000 tested, 0.02% active; in the data active means activity change below about -50%; inconclusive means about -30% to -50%; inactive means above about -30%;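 also: stimulus is agonist 54-4 at its EC80 concentration; % is scaled to controls: 0 for no effect and ±100 for the full control effect; compound concentration not given in the record; the text of the record puts the active cut at -80%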
Target sequence (Q9GZU1 whole entry, looked up): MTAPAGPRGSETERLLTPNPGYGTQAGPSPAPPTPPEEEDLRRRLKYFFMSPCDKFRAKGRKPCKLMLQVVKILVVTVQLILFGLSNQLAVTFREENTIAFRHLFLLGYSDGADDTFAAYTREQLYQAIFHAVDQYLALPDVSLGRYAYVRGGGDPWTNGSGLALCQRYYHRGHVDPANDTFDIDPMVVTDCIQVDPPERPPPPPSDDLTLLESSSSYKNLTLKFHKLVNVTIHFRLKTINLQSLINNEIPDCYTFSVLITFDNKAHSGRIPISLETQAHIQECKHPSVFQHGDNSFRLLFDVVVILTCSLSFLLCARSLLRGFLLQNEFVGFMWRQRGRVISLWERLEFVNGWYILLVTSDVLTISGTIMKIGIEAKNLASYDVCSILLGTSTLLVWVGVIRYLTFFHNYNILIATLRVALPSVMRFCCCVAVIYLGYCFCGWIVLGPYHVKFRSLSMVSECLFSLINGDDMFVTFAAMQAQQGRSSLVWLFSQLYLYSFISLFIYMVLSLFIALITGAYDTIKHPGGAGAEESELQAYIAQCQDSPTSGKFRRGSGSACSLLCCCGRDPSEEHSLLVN
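Tet-induced TRPML1-DL cells loaded with Ca8 no-wash calcium dye were read kinetically on FDSS. Compound addition was followed by EC80 agonist 54-4 (4 uM final); inhibition was read over 110 s.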
ClpP mod – qHTS Assay for Activators of ClpP. AID 651965, 2013. purified B. subtilis ClpP, FRET peptide cleavage, 20 min. Potency, µM (doses to about 57.5 µM), for the others: at the highest dose activity change, negative = active. ATP-dependent Clp protease proteolytic subunit (Bacillus subtilis (strain 168)), P80244. 340,000 tested, 1.9% active; active = well fitted falling curve with a large enough effect; inconclusive = small, poorly fitted or top-dose-only effect; inactive = no such curve, though single readings can be large or run the other way; also: potency is read from the fitted curve at half-maximal effect; the source files actives as falling curves though it sought activators and does not explain the sign; nearly all actives have a fitted effect of over 65% in size; many hits overshoot -100%
Target sequence (P80244 whole entry, looked up): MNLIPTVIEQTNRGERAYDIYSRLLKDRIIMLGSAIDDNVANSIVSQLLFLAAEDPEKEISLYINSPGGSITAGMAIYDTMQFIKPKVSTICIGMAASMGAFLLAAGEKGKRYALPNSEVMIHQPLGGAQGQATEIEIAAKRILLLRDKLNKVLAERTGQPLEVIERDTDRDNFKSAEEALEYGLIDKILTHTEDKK
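ClpP 10 microg/mL final, pH 8 Tris/KCl buffer with BSA, glycerol, Tween-20; compound pinned in; FRET-FV substrate; RT 20 min; Ex320/Em430; ΔFRET vs ADEP 5.8 microM, DMSO, no enzyme.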
gsp antagonist – antagonizes gsp, the McCune-Albright syndrome mutation; gsp-mutant cells, cAMP HTRF, 30 min; control for the full effect not named in the record; Potency, µM (titrated, usually from 76.9 µM), for inactives: at the highest dose activity change, negative = inhibition, actives largely listed as inhibitors; 340,000 tested, 0.4% active; AID 624288; active = falling curve of any shape with a large fitted effect; inconclusive = falling curve, mostly with a smaller effect; inactive = flat or rising curve; cell line not stated here;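 also: intracellular cAMP measured with PDE inhibitor Ro 20-1724 present during compound exposure; potency is read from the fitted curve at half-maximal effect; % is scaled to controls: 0 for no effect and ±100 for the full control effect; nearly all actives have a fitted effect of over 65% in size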
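HTRF cAMP read-out (cAMP-d2 plus anti-cAMP antibody-K in lysis buffer, 30 min RT). Before lysis, cells are exposed to compounds with […] for 30 min at 37C in DPBS containing Ca/Mg, BSA and Tween 20.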
TRPML1 ag – human mucolipin-1 channel agonism; AID 624414; Q9GZU1; TRPML1-expressing cells, Ca2+ dye fluorescence, FDSS; host cell line not named in the record; reference of the full effect not given here; 410,000 tested, 0.12% active; activation, % (concentration not given with the values); in the data active = activation above about 50%; inconclusive = about 30% to 50%; inactive = below about 30%; also: 0% is about no effect; the text of the record puts the active cut at 80%
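Kinetic FDSS Ca2+ read in Tet-induced TRPML1-DL cells (ABD Ca8 dye plus quencher, 45-90 min RT loading): baseline, then compound, then 110 s agonist window; EC80 agonist 54-4 at 4uM final added afterwards for a 110 s antagonist window.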
An asterisk follows results filed as active; ? = inconclusive; . = not tested or not shown; [ ] = remark or other dose.

SMILES | Menin-MLL FL inh | gsp agonist | TRPML1 inh | ClpP mod | gsp antagonist | TRPML1 ag
COc1ccc(N(C(=O)c2ccccc2C)S(=O)(=O)c2ccc(Cl)cc2)cc1 | . | . | 21.5 | 2.1% | . | 2.2
O=S(=O)(Nc1ccc(-c2ccc(N3CCCC3)nn2)cc1)c1ccc(C(F)(F)F)cc1 | . | . | -1.4 | -1.5% | . | ?
Cc1cc(Cl)ccc1OC(C)c1nnc(N)s1 (configuration not stated) | 2.2 | 2.0% | 1.9 | -0.7% | -4.4% | 0.8
COCc1cc(CN2CCN(CCc3ccccc3)C(CCO)C2)ccc1OC (configuration not stated) | 3.7 | 9.5%[15.4 µM] | -6.7 | -4.9% | -5.4% | 0.6
Cc1ccc(C)c(OCC(=O)Nc2ccc(N3CCOCC3)cc2N2CCOCC2)c1 | . | -15.9% | 17.2 | -2.8% | -3.2% | 0.2
COC(=O)c1cnn(C(=O)c2ccccc2Br)c1N | -0.5 | -1.7% | -22.4 | ? | -2.4% | 0.0
CCOC(=O)c1csc(-c2snnc2C)n1 | 4.5 | -1.2% | -3.9 | -7.3% | 3.4% | 0.5
CN(C)CCCn1c(SCc2c(Cl)cccc2Cl)nnc1-c1ccncc1 | -0.3 | 17.9% | 43.9 | -2.4% | 1.6% | 0.5
COc1ccccc1CNC(=O)CN1C(=O)COc2ccc(S(=O)(=O)N3CCC(C)CC3)cc21 | . | . | -1.0 | -1.0% | . | 2.1
Cc1c(N=Cc2ccc(Br)s2)cccc1[N+](=O)[O-] | 3.6 | -0.6% | -10.2 | -0.4% | 9.9% | 0.6
COc1ccc(NS(=O)(=O)c2cc(NC(=O)CCNC(=O)c3ccco3)ccc2OC)cc1 | . | 1.0%[15.4 µM] | -4.8 | -1.5% | 5.6% | 0.3
O=C(Cn1c(=O)nc(-c2ccccc2)c2ccccc21)NCCc1ccccc1 | . | . | -10.0 | -0.9% | . | 1.4
CCOc1ccc(Cc2nnc(SCC(=O)Nc3ccc(C(C)=O)cc3)[nH]c2=O)cc1 | . | -6.1% | 22.7 | -0.6% | -10.4% | -0.4
COc1ccc(C2=NOC(C)(c3nnc(-c4ccc(F)cc4)o3)C2)cc1 (configuration not stated) | 5.3 | -11.3% | 2.8 | -3.3% | -5.7% | 1.2
CSC1=N/C(=C\c2ccc(C)s2)C(=O)S1 | 2.3 | 3.7% | -7.3 | 0.8% | -1.8% | -0.8
COc1ccc(-c2cc(=O)oc3c4c(ccc23)OCN(Cc2ccccc2)C4)cc1 | . | . | -17.1 | -6.8% | . | 0.7
O=C(COC(=O)C1=COCCO1)Nc1cccc(S(=O)(=O)N2CCOCC2)c1 | . | 16.3% | 5.1 | -1.4% | 13.0% | 0.6
Cc1cc(Cl)ccc1NC(=O)CSc1nc2c(c(=O)[nH]1)CCC2 | . | . | 11.0 | -2.0% | . | 2.3
CCCCCCc1cc2cc(C(=O)Nc3ccc(OC)cc3)c(=O)oc2cc1O | 2.4 | -34.2%[inhibitor] | 6.3 | -0.2% | -2.8% | 0.3
Cc1ccc(C)c(N2CCN(CC3CC=CCC3)CC2)c1 (configuration not stated) | 1.8 | -32.8%[inhibitor] | 5.3 | 0.6% | -2.6% | -0.4
CC(N=Cc1nc(-c2ccccc2)oc1O)c1ccccc1 (configuration not stated) | 3.0 | -37.3%[inhibitor] | 15.4 | -1.6% | -15.7% | -0.3
O=C(c1cn(-c2ccccc2)nc1-c1ccc(Cl)cc1)N1CCOCC1 | 3.0 | -29.3% | 39.6 | -4.8% | 3.5% | 0.2
OCC[C@H]1C[C@H](O)[C@@H](O)[C@]2(OCc3ccccc32)O1 | . | . | 1.4 | 1.2% | 10.3% | -0.9
CCOc1ccc(CCNC(=O)COC(=O)CCc2cc(OC)c(OC)c(OC)c2)cc1OCC | . | -31.1% | -22.3 | 0.3% | 4.5% | -0.6
S=C1N[C@H]2CCCC[C@@H]2N1 | 1.5 | ? | 18.6 | -1.5% | 7.7% | 0.0
Cc1cc(C)c(CN2CCC(n3nccc3NC(=O)c3ccccc3Cl)CC2)cc1C | . | -2.1%[15.4 µM] | -14.8 | -3.4% | 0.1% | -0.1
COc1cccc(/C=N/NC(=S)NCCc2ccccc2)c1OC | 8.6 | -51.8%[inhibitor] | 34.5 | -25.9% | ? | 4.0
C[C@@H](O)[C@H]1O[C@]2(C)CCC[C@H]1O2 | . | . | -0.2 | 1.7% | 8.7% | -0.6
Cn1nc(SCC(=O)O)sc1=S | -2.1 | 6.7% | -7.4 | -2.0% | -17.0% | -0.2
O=C(c1cccc(S(=O)(=O)N2CCN(c3ccc(F)cc3)CC2)c1)N1CCCCCCC1 | . | ? | 2.6 | 1.1% | -17.8% | 0.1
CC(=O)Nc1cc(C(=O)OCC(=O)c2ccccc2)ccc1C | -2.5 | -15.6% | 2.7 | -4.1% | -13.7% | 1.0
CSc1ccc(S(=O)(=O)N2CCC(C(=O)NCCN3CCOCC3)CC2)cc1 | -2.9 | -8.6% | 9.7 | . | 10.8% | -0.4
CCOC(=O)N1CCN(C(=O)C2CC(=O)N(c3ccc(OC)cc3)C2c2ccc(OC)cc2)CC1 (configuration not stated) | 6.0 | 1.9% | 18.2 | 2.2% | -16.1% | 0.6
C=CCNC(=S)N/N=C/c1ccc(C)s1 | 1.5 | -1.4% | 25.9 | 3.0% | 2.9% | 0.4
CCC(C)(C)NC(=O)C(c1cccn1C)N(C(=O)Cn1nnc2ccccc21)c1ccccc1OC (configuration not stated) | 3.0 | -58.9%[inhibitor] | -5.2 | -1.4% | -9.9% | -0.4
O=C(N/N=C/c1cnc(N2CCCCC2)s1)c1ccc(Cl)cc1 | -0.3 | -4.6% | -21.7 | -2.7% | -5.0% | 1.7
CNS(=O)(=O)/C=C/c1ccccc1 | -1.4 | -4.8%[15.4 µM] | -18.9 | 1.0% | 11.6% | -1.1
Cc1nn(Cc2c(F)c(F)c(F)c(F)c2F)c(C)c1NC(=O)c1ccc(COc2ccccc2Cl)o1 | 2.2 | -8.9% | 37.1 | 0.8% | -20.9% | 0.8
Cc1cccc(N2CCN(S(=O)(=O)c3ccc(-c4ccc(=O)[nH]n4)o3)CC2)c1C | -0.6 | 18.0% | -10.9 | -1.2% | 10.7% | -0.2
C=CCc1c(C)nc(SC(C)C)[nH]c1=O | -0.3 | 9.1% | -3.0 | -0.6% | -2.8% | 0.0
COc1cc(CN2CCc3nc(N4CCN(c5ccccc5F)CC4)ncc3C2)ccc1OC(C)C | . | . | 32.0 | -5.6% | . | 1.4
CC(Sc1nc(-c2ccccc2)cc(C(F)(F)F)n1)C(=O)N1CCC(C(N)=O)CC1 (configuration not stated) | -0.7 | -2.1% | -8.9 | -1.3% | -11.2% | 0.6
O=C(Nc1c[nH]c(=O)[nH]c1=O)c1ccc2c(c1)C(=O)N(c1cccc([N+](=O)[O-])c1)C2=O | 3.2 | -7.7%[15.4 µM] | 1.8 | . | -12.5% | -0.1
CCC(CO)NC(=O)c1cccc(S(=O)(=O)N2c3ccccc3CC2C)c1 (configuration not stated) | 0.1 | 12.6% | 16.9 | 1.2% | 4.2% | -0.1
Cc1ccc(-c2cc(N)n[nH]2)cc1 | -2.0 | -8.5% | -5.0 | -1.0% | 3.4% | -0.6
CCOc1cc(NC(=S)NCC2CCCO2)c(OCC)cc1NC(=O)c1ccc(F)cc1 (configuration not stated) | -3.7 | 5.8%[15.4 µM] | -5.7 | -2.5% | -27.5% | -1.5
Cc1ccn2cc(CCNS(=O)(=O)c3ccc4ccccc4c3)nc2c1 | . | 3.7%[15.4 µM] | 1.6 | -2.0% | 6.4% | 0.2
S=C(Nc1ccccc1Cl)N1CCOCC1 | 3.1 | -47.3%[inhibitor] | -10.0 | -1.6% | 14.1% | 1.0

Full records, looked up by structure:
Profile of CCOc1cc(NC(=S)NCC2CCCO2)c(OCC)cc1NC(=O)c1ccc(F)cc1 (configuration not stated) = Menin-MLL FL inh = -3.7; gsp agonist = 5.8%[15.4 µM]; TRPML1 inh = -5.7; ClpP mod = -2.5%; gsp antagonist = -27.5%; TRPML1 ag = -1.5
Profile of Cc1cccc(N2CCN(S(=O)(=O)c3ccc(-c4ccc(=O)[nH]n4)o3)CC2)c1C = Menin-MLL FL inh = -0.6; gsp agonist = 18.0%; TRPML1 inh = -10.9; ClpP mod = -1.2%; gsp antagonist = 10.7%; TRPML1 ag = -0.2

(next part)
SMILES | Menin-MLL FL inh | gsp agonist | TRPML1 inh | ClpP mod | gsp antagonist | TRPML1 ag
O=C(Cc1ccccc1)c1ccc2c(c1)OCCO2 | -0.6 | 11.7% | -0.9 | -5.4% | 4.1% | -0.9
CCOc1ccc(C(=O)CCC(=O)N(CC)CC(=O)NCc2ccc(Cl)cc2)cc1 | . | 3.0%[15.4 µM] | 11.4 | -0.8% | -5.3% | -0.7
CCOCCCNC(=O)/C(C#N)=C/c1cc(Br)c(O)c(Br)c1 | 17.8 | ? | . | -0.4% | ? | .
OCC1OC(n2cnc3c(SCc4ccccc4)nc(F)nc32)C(O)C1O (configuration not stated) | . | 1.1%[15.4 µM] | -6.8 | 0.9% | 6.1% | 0.0
O=[N+]([O-])c1cccc(OCc2cn3cccnc3n2)c1 | -0.4 | 13.2%[15.4 µM] | -6.3 | . | 5.2% | -0.4
COc1cccc(NC(=O)NNC(=O)CN2C(=O)COc3ccccc32)c1 | -6.9 | 9.1%[15.4 µM] | 16.8 | . | 9.0% | 0.9
NNC(=O)c1cccc(COc2ccc(Br)cc2)c1 | 1.3 | -18.6% | -7.9 | 1.2% | -9.6% | -0.7
COc1ccc(-c2cc(=O)oc3cc(OC(=O)C4CCCCC4)c(Cl)cc23)cc1 | 3.3 | -23.7% | 11.6 | -22.5% | -18.4% | 1.3
Cc1ccc(CSc2nc3c([nH]c4ccccc43)c(=O)n2C)cc1 | . | . | 5.5 | -2.8% | . | -0.1
O=C(NNC1=C(C(=O)C(F)(F)F)CCC1)c1cccnc1 | -1.8 | 5.3%[15.4 µM] | -0.7 | . | . | 0.0
CCOc1ccc(CC(=O)NCc2cn3c(C)csc3n2)cc1 | 5.4 | ? | -4.0 | 1.2% | -5.4% | -0.3
C#CCOCCOCCOCCNc1nc(N2CCN(C(=O)Cn3cc(CCO)nn3)CC2)nc(N2CCN(C(=O)[C@H]([C@@H](C)O)n3cc(CCCCN)nn3)CC2)n1 | -2.2 | . | 11.2 | 0.4% | 7.1% | -0.6
Cc1ccc(/C(O)=C2/C(=O)C(=O)N(c3ccccn3)C2c2ccc(F)cc2)cc1 (configuration not stated) | -1.3 | ? | 0.5 | 1.8% | 1.3% | 2.3
Cc1cc(C)c(C)c(S(=O)(=O)N2CCC(C(=O)NCCCN3CCCC3=O)CC2)c1C | . | -41.5%[inhibitor] | 6.3 | -2.4% | 6.1% | 0.5
Cc1nc2ccc(NC(=O)c3ccccc3)cc2s1 | -1.7 | 30.9% | 24.3 | -2.6% | 3.9% | 4.2
